NPR1 antag: antagonists of human natriuretic peptide receptor Npr1 | HEK293 hNpr1 GloSensor cGMP, ANP-stimulated luminescence | actives 1.6% (n = 76,000) | P16066 | Potency, µM (titrated, usually from 46.3 µM), for the others: top-dose activity change, negative = inhibition, most hits filed as inhibitors; active = well fitted inhibition curve with a large enough effect; inconclusive = small, poorly fitted or top-dose-only effect; inactive = no such curve, though single readings can be large or run the other way;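 note: nearly all actives have a fitted effect of over 60% in size; nearly all hits also lower the signal before the agonist is added; a reference antagonist and vehicle were the controls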
Target sequence (P16066 whole entry, looked up): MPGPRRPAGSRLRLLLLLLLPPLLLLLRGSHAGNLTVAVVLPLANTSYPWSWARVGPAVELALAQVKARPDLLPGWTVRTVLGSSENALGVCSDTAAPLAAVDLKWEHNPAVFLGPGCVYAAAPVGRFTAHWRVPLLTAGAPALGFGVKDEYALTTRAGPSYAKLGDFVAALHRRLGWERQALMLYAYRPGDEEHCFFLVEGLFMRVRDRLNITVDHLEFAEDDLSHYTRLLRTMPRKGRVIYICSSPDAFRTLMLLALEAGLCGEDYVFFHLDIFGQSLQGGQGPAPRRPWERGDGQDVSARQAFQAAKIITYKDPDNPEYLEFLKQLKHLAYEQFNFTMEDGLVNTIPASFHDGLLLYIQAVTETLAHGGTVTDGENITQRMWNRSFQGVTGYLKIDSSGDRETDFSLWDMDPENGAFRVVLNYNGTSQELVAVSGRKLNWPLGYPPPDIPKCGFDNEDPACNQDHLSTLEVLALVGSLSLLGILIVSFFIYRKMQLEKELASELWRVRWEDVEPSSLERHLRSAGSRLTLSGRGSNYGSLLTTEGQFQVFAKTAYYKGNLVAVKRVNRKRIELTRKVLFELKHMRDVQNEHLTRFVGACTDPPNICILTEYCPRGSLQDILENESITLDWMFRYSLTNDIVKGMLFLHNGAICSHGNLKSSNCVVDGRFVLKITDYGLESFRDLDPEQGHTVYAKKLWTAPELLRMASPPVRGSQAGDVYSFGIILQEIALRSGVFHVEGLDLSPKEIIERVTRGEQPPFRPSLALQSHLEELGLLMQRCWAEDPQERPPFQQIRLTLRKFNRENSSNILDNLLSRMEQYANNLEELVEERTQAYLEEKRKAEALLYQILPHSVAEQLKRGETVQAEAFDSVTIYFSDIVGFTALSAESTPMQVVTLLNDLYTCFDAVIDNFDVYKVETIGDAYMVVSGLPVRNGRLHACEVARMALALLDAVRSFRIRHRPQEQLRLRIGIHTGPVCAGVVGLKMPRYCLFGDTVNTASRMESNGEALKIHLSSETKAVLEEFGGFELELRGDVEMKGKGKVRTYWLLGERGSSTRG
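Compound pre-incubated 30 min at room temperature on GloSensor-loaded HEK293 cells stably carrying hNpr1 and the pGS-40F cGMP biosensor. Stimulation uses hNppA at 0.1 nM final; luminescence is taken at baseline and 20 min post-agonist.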
Starred values were filed as active, the others as inactive; ? = inconclusive; [ ] = dose if it differs, or a comment. % is set by controls: 0 for no effect and ±100 for the full control effect; potency is the fitted concentration of half-maximal effect. This is a subset; rates above refer to the full screens.

NPR1 antag | smiles
2% | CCN1C(=O)C2(CCN(S(=O)(=O)c3cc(F)ccc3C)CC2)c2ccccc21
3% | Cc1ccccc1COC1CN(C(=O)C2CCN(C(=O)C3CC3)CC2)C1
2% | O=C(N[C@H]1CCN2C(=O)c3cc(-c4ccc(Cl)cc4)ccc3NC(=O)[C@@H]2C1)c1ccncc1
3%[70.6 µM] | C[C@H](O)c1onc(-c2ccc(F)cc2)c1C(=O)NC1CC1
-13% | CC(=O)N1CCC(C2CCN(S(=O)(=O)c3ccc(C#N)cc3)C2)CC1 (centres undefined)
2% | O=C(NCc1cccs1)c1ccc(CN2C(=O)NC3(CCS(=O)(=O)CC3)C2=O)cc1
3% | CO[C@H]1[C@H](NC(=O)CN2CCOC2=O)c2ccccc2C12CCNCC2
3% | COCC(c1ccccn1)N(C)Cc1cn(-c2ccccc2)nn1 (centres undefined)
10% | CS(=O)(=O)N1C[C@H]2CCN(C(=O)c3ccc(=O)[nH]c3)C[C@H]21
-13% | COc1ccc(-c2nccn2CC(CO)Cc2ccsc2)cc1O (centres undefined)
-9% | Cc1nnc(C2CCCCCN2S(=O)(=O)c2ccccc2C)o1 (centres undefined)
-12% | COc1ccc(CC(=O)Nc2ccc3n(c2=O)C[C@H]2C[C@@H]3CN(C(=O)c3ccc4ccccc4c3)C2)cc1
8% | Cc1csc(CN(C)C(=O)CN2C[C@@H]3CC[C@H](CC2=O)N3)n1
6% | Cc1cnc(C2CCOCC2)n1C1CCCN(Cc2ccc(C#N)cc2)C1 (centres undefined)
-1%[70.6 µM] | Cc1cccc(OCC2(CNC(=O)c3cc(C)nn3C)C[C@@H](O)[C@@H](O)C2)n1 (some centres undefined)
7% | CCN1Cc2nc(OC)c(CNC(=O)C3(C)CCCCO3)cc2C1=O (centres undefined)
1%[70.6 µM] | Cc1ccc([C@H]2C[C@@H](O)[C@@H](O)[C@@H]2NC(=O)C2CC2)cc1
0% | CC(C)c1ccc(NC(=O)Cn2nc3n(c2=O)CCCCC3)cc1
0% | Cc1ccc(CNC(=O)N2CCCC(c3nn(C)c(=O)n3Cc3ccccc3)C2)cc1 (centres undefined)
3% | CN1CCN(c2nc3c(s2)CN(C(=O)c2ccnn2C)CC3)CC1
3% | Cc1cc2c(c(=O)n(-c3ccccc3)c(=O)n2CC(=O)Nc2ccccc2Cl)n1C
3%[70.6 µM] | O=C(C[C@@H]1C[C@H]2O[C@H](CNC3CCCC3)[C@@H](O)[C@H]2O1)N1CCOCC1
-4% | C=CCc1cc(-c2c(-c3ccccc3)ncn2CCCO)cc(OC)c1O
-2% | COCCn1c(C)cnc1CC1CCCN(Cc2cccc(F)c2)C1 (centres undefined)
7% | Cc1nc(C)n(CCCNC(=O)c2cc(S(N)(=O)=O)ccc2F)n1
9% | COCCN1C(=O)CCC2(CNC(=O)c3cc(F)ccc3F)CCCC=C12 (centres undefined)
8% | CCn1ncnc1CN1CCC(N2CCCC(C(=O)N3CCCC3)C2)CC1 (centres undefined)
-13%[70.6 µM] | CC(C)C[C@@H]1N[C@H](C(=O)NC(C)C)Cc2cn(Cc3nccn3C)c3cccc1c23
-6% | C[C@@]12CO[C@@H](CNS(C)(=O)=O)O[C@@H]1CC[C@]1(C)[C@@H]2CC[C@@H](O)[C@H]1CC(=O)NCc1ccco1
-3% | O=C(CN1C(=O)NC2(CCS(=O)(=O)CC2)C1=O)Nc1ccc(F)cc1
13% | COCC(=O)N[C@@H]1CN(C(=O)c2ccc(OC)cc2OC)CC[C@@H]1CO
0% | CNCC(=O)N1C[C@@H](C(=O)O)[C@H](c2ccccc2)C1
0% | CC1(C)CNC(=O)c2nc(-c3ccccc3-n3cncn3)[nH]c2C1
-3% | COC[C@@H]1CN(C(=O)c2ccc(OC)nc2)C[C@H]1c1ccncc1
-26% | CCc1noc(-c2nc(-c3ccc4c(c3)OCO4)no2)n1
-8% | CN(C)C[C@@H]1CN(c2ccncn2)C[C@H]1NC(=O)c1ccc2c(c1)OCO2
9% | O=C(NCC1CC1)c1cccc(OC2CN(C3CCSCC3)C2)c1
-6% | O=C(Nc1ccc(F)cc1)N1CCC(Oc2ncccc2C(=O)N2CCOCC2)C1 (centres undefined)
-3%[70.6 µM] | Cc1ccc2c(n1)N(C)[C@H](CO)CCN(C(=O)Nc1ccccc1)C2
2% | COc1ccc(NC(=O)Cn2ccn3nc(-c4ccccc4)c(CO)c3c2=O)c(OC)c1
0% | O=C(CC1CCCN(c2cnn(CC3CC3)c(=O)c2)C1)NCc1ccc(Cl)cc1 (centres undefined)
0% | COCCC(=O)N1CCCCCCNC(=O)CC1c1ccccc1 (centres undefined)
-11% | COCCC1(C(=O)O)CCCN(Cc2cnc(CC3CCCC3)[nH]2)C1 (centres undefined)
0%[70.6 µM] | Cn1cc(-c2ccc(CO)cc2)c2nc(COc3ccccc3)cn2c1=O
-12% | COc1cccc(CCC(=O)N2CCC3(CC2)C(=O)N(C)c2ccccc23)c1
0% | CC(C)N1C(=O)Cc2ccccc2C1C(=O)NCc1ccc(N(C)C)cc1 (centres undefined)
-1% | CCc1noc([C@@H]2CC(F)(F)CN2C(=O)c2ccco2)n1
1% | Cc1ccc(C(=O)N2CCCCCCNC(=O)[C@@H]3CCCC[C@@H]32)c(=O)[nH]1
-2%[70.6 µM] | Cc1ccc(CN2C(=O)[C@@H]3C[C@@H](O)CN3C3(CN(Cc4ccc(F)cc4)C3)C2=O)o1
0% | O=C(c1ccccc1OC1CN(Cc2ccc(F)c(F)c2)C1)N1CCOCC1
0% | O=C1NCCCCCCN(Cc2ccncc2)[C@@H]2CN(C(=O)CCc3ccccc3)CC[C@@H]12
-21%[70.6 µM] | COc1ccc(S(=O)(=O)N2C[C@@H](F)[C@@H](OCc3nc4ccccc4o3)C2)cc1
2% | Cn1nccc1C(=O)N1CCCCCCNC(=O)[C@@H]2CCCC[C@@H]21
7.9µM* | COCc1nc(-c2ccc(OC3CCN(Cc4ccc(C(F)(F)F)cc4)C3)cc2)no1 (centres undefined)
-28% | CCC1=C(C(=O)OC)C(c2ccc(C(C)C)cc2)N2C(CC(=O)N3CCOCC3)=CSC2=N1 (centres undefined)
0% | Cc1ccc(-c2ccc3nnc(CNC(=O)c4ccccn4)n3n2)cc1
5% | CN1CC(=O)N2CCN(S(=O)(=O)c3ccc(Cl)s3)CC2C1=O (centres undefined)
-1% | COc1ccc(C(=O)NCCc2noc(C3CC3)n2)cn1
-3%[70.6 µM] | COC(=O)c1ccc2c(c1)nc1n2[C@@H](CNC(=O)NC2CCCCC2)COC1
4%[70.6 µM] | CS(=O)(=O)c1ccc2c(c1)nc1n2[C@@H](CNCc2ccncc2F)COC1

Other results.
NPR1 antag | smiles
-3% | Cc1nc(C(C)C)sc1C(=O)N1CCC(=O)N(CC2CC2)C(C(C)C)C1 (centres undefined)
3% | O=C(CC1CCCN(c2cn[nH]c(=O)c2)C1)N1CCC(Cc2ccccc2)CC1 (centres undefined)
0% | CCOc1ccc(-c2cc3c(=O)n(CCNC(=O)C4(c5ccccc5)CC4)ccn3n2)cc1
3% | CN(C)C(=O)C1CN(C(=O)Cc2cccc(Cl)c2)CC12CCOCC2 (centres undefined)
-2%[70.6 µM] | COc1ncc(-c2ccc3ncn(-c4ccc(F)cc4F)c(=O)c3n2)cn1
-2% | Cc1ccccc1C(=O)N1CCC2(CC1)N=C(c1ccccc1)NO2
0% | O=C(Cc1ccc(F)cc1)N1CCC2(CC1)NC(=O)N(Cc1ccccc1)C2=O
9% | O=[S+]1([O-])NCC2(CCN(Cc3ccc(OC(F)(F)F)cc3)C2)Nc2ccccc21 (centres undefined)
4% | Cc1oc2ccn(C)c(=O)c2c1C(=O)NCc1ccccc1F
9% | Cc1ccc(C)c(C(=O)N2C[C@@H](CO)[C@H](N(C)C)C2)c1
6% | COc1ccc(CCC(=O)N2CCC(c3n[nH]c(=O)n3Cc3ccc(F)cc3)CC2)cc1
-14% | COc1ccc(-c2cc(N3CCN(C(=O)Cc4cccc(OC)c4)CC3)n[nH]2)cc1

Given with bars between the fields: 18 of the compounds above
Molecule | NPR1 antag
COc1ccc(S(=O)(=O)N2C[C@@H](F)[C@@H](OCc3nc4ccccc4o3)C2)cc1 | -21%[70.6 µM]
Cn1nccc1C(=O)N1CCCCCCNC(=O)[C@@H]2CCCC[C@@H]21 | 2%
COCc1nc(-c2ccc(OC3CCN(Cc4ccc(C(F)(F)F)cc4)C3)cc2)no1 (centres undefined) | 7.9µM*
CCC1=C(C(=O)OC)C(c2ccc(C(C)C)cc2)N2C(CC(=O)N3CCOCC3)=CSC2=N1 (centres undefined) | -28%
Cc1ccc(-c2ccc3nnc(CNC(=O)c4ccccn4)n3n2)cc1 | 0%
CN1CC(=O)N2CCN(S(=O)(=O)c3ccc(Cl)s3)CC2C1=O (centres undefined) | 5%
COc1ccc(C(=O)NCCc2noc(C3CC3)n2)cn1 | -1%
COC(=O)c1ccc2c(c1)nc1n2[C@@H](CNC(=O)NC2CCCCC2)COC1 | -3%[70.6 µM]
CS(=O)(=O)c1ccc2c(c1)nc1n2[C@@H](CNCc2ccncc2F)COC1 | 4%[70.6 µM]
Cc1nc(C(C)C)sc1C(=O)N1CCC(=O)N(CC2CC2)C(C(C)C)C1 (centres undefined) | -3%
O=C(CC1CCCN(c2cn[nH]c(=O)c2)C1)N1CCC(Cc2ccccc2)CC1 (centres undefined) | 3%
CCOc1ccc(-c2cc3c(=O)n(CCNC(=O)C4(c5ccccc5)CC4)ccn3n2)cc1 | 0%
CN(C)C(=O)C1CN(C(=O)Cc2cccc(Cl)c2)CC12CCOCC2 (centres undefined) | 3%
COc1ncc(-c2ccc3ncn(-c4ccc(F)cc4F)c(=O)c3n2)cn1 | -2%[70.6 µM]
Cc1ccccc1C(=O)N1CCC2(CC1)N=C(c1ccccc1)NO2 | -2%
O=C(Cc1ccc(F)cc1)N1CCC2(CC1)NC(=O)N(Cc1ccccc1)C2=O | 0%
O=[S+]1([O-])NCC2(CCN(Cc3ccc(OC(F)(F)F)cc3)C2)Nc2ccccc21 (centres undefined) | 9%
Cc1oc2ccn(C)c(=O)c2c1C(=O)NCc1ccccc1F | 4%

Next compounds follow.
NPR1 antag | smiles
-2% | Cc1ncccc1OC1(C(=O)O)CCN(C(=O)C2CC=CCC2)CC1 (centres undefined)
? | O=c1[nH]c(C2CCCN(Cc3ccccn3)C2)nn1-c1ccccc1 (centres undefined)
2% | CC1(c2ccccc2)N(Cc2ccccc2F)C(=O)OC12CCN(C(=O)c1cccc(C#N)c1)CC2 (centres undefined)
2%[70.6 µM] | NC(=O)c1cccc(-c2cc(-c3ccncc3)c3cncn3c2)c1
7% | CCOc1ccccc1C(=O)N1CCC2(CC1)CC(O)CCO2 (centres undefined)
7% | CNCCN1C(=O)CC[C@H]2CN(C(=O)c3cnc4c(c3)CCCC4)CC[C@H]21
-14% | Cc1ccc(CN2CCCC(c3nc(-c4cccnc4)no3)CCNC(=O)CC2)o1 (centres undefined)
-12% | Cc1ccc(-c2nccn3cc(C(=O)N4CCN(CC(C)C)CC4)nc23)cc1
-1% | CCCCNC(=O)[C@@H]1CCCC[C@@H]1C(=O)N1CC(n2nc(C)cc2C)C1
5% | COc1ccc(C(=O)N[C@H]2CC[C@]3(C)CCC([C@H](C)C(=O)NCc4ccccc4)[C@H](O)[C@H]3[C@@H]2C)cc1 (some centres undefined)
2% | CCNC(=O)NCC(=O)N1CCCCCCNC(=O)CC1c1ccccc1 (centres undefined)
-5% | O=C(CCCc1ccccc1)N1CCN(C2CCN(CCc3ccccc3)C2=O)CC1 (centres undefined)
13% | Cc1c(Cl)cccc1NC(=O)CN1C(=O)NC2(CCOCC2)C1=O
-15% | CC(=O)Nc1ccc(S(=O)(=O)N[C@@H]2C=C[C@@H](c3c(C)nn(-c4ccc(C(C)(C)C)cc4)c3C)C2)cc1
1%[70.6 µM] | Clc1cccc(-c2cnc([C@@H]3COCCN3Cc3ncc[nH]3)[nH]2)c1
-1% | O=C(Nc1ccc2c(c1)OCCO2)N1CCC(Cc2nc(-c3cccnc3)n[nH]2)C1 (centres undefined)
-1%[70.6 µM] | COc1ccc([C@H]2C[C@@H](O)[C@@H](O)[C@@H]2NC(=O)c2c(-c3ccccc3)noc2C)cc1
0%[70.6 µM] | O=C(N[C@H]1CCN2C(=O)c3cc(-c4ccccc4)ccc3NC(=O)[C@H]12)C1CCCC1

Bioassay records: PubChem BioAssay, National Center for Advancing Translational Sciences (NCATS)
